Screens deposited in PubChem by Broad Institute.
MITF inh = inhibitors of MITF; TRPM1 promoter luciferase, luminescence, 24 h; inhibition, % (concentration not given with the values); actives 0.28% (n = 37,000); AID 2240;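 active means most replicates at 85% or more, or half of them and the mean; inconclusive means half reach 85% but not the mean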;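 further: human melanocyte line stably carrying TRPM1 promoter luciferase reporter; 0% = vehicle wells and 100% = a positive control; the first replicate is given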
PD-1 reversal = activators reversing PD-1 mediated T-cell inhibition. activation, % (no concentration beside the values). primary human CD4 T cells, PD-L1 beads, CellTiter-Glo 96 h. 29,000 tested, under 10 active;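 active means replicate mean of 50% or more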;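 further: 0% = median vehicle wells and 100% = positive control; 100 nL library stock added to about 50 µL; numbers are from one replicate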
Shh pathway inh = Sonic Hedgehog pathway inhibition | actives 2.1% (n = 22,000) | Shh-LIGHT2 Gli-luciferase reporter, 30 h | inhibition, % (no concentration beside the values);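 active means replicate mean of 65% or more; inconclusive means mean lower but half the replicates past it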;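 further: pathway switched on by Shh-conditioned medium diluted 1 in 25 in low serum; 100 nL library stock added to about 40 µL; 0% = median of neutral wells and 100% = positive control level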
YB-1 expr inh = YB-1 expression inhibition; U2OS, qRT-PCR YB-1 vs CDIP delta delta Cp, 16 h; hits give high values; zero = DMSO, each unit about twofold; delta delta Cp (YB-1 minus CDIP) (no concentration beside the values); actives 0.37% (n = 30,000); AID 434959;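 active means delta delta Cp rounded down to an integer at or above 3, about 3 SD of DMSO wells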;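 further: higher means less YB-1 transcript or more CDIP transcript relative to DMSO; stock transfer was 100 nL into about 100 µL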
Numbers without * were called inactive; ? = inconclusive; / = not tested or not shown.

nr	Molecule	MITF inh	PD-1 reversal	Shh pathway inh	YB-1 expr inh
1	C[C@@H]1CN([C@H](C)CO)C(=O)c2cc(NC(=O)Nc3cccc4ccccc34)ccc2O[C@@H]1CN(C)S(=O)(=O)c1cn(C)cn1	2	/	-55	-0.041
2	Cc1noc(C)c1S(=O)(=O)N(C)C[C@@H]1Oc2ccc(NC(=O)Nc3ccccc3)cc2CC(=O)N([C@H](C)CO)C[C@H]1C	-7	-0.1	?	-0.23
3	Cc1cc(OCC(=O)Nc2cc(-c3nc4ccccc4o3)ccc2C)ccc1Cl	-55	-3.6	/	/
4	COc1ccc(S(=O)(=O)N(C)C[C@H]2Oc3ccc(NS(C)(=O)=O)cc3C(=O)N([C@@H](C)CO)C[C@H]2C)cc1	-9	-0.1	-37	-0.055
5	Cc1noc(C)c1NC(=O)N(C)C[C@H]1Oc2ccc(NC(=O)c3ccncc3)cc2C(=O)N([C@H](C)CO)C[C@H]1C	-3	2.4	/	0.12
6	C[C@@H]1CN([C@H](C)CO)C(=O)Cc2cc(NS(=O)(=O)c3ccc(F)cc3)ccc2O[C@H]1CN(C)Cc1ccccc1	-1	/	2	0.26
7	Cc1nc(SCC(=O)NCc2ccccc2)n[nH]1	-9	3.0	/	/
8	C[C@@H]1CCCCO[C@H](CN(C)C(=O)Nc2cccc3ccccc23)[C@@H](C)CN([C@H](C)CO)C(=O)c2cc(NC(=O)Cc3ccccc3)ccc2O1	12	0.1	0	-0.17
9	COc1ccc(-c2nn(-c3ccccc3)cc2C2NC(=O)NC(C)=C2C(=O)OCc2ccccc2)cc1 (stereo unspecified)	34	-3.2	/	/
10	C[C@@H]1CN([C@H](C)CO)C(=O)c2cccc(NC(=O)Nc3ccc(C(F)(F)F)cc3)c2O[C@H]1CN(C)CC1CC1	26	/	-42	-0.48
11	Cc1noc(C)c1S(=O)(=O)N(C)C[C@@H]1Oc2c(NC(=O)c3nc4ccccc4s3)cccc2C(=O)N([C@H](C)CO)C[C@@H]1C	-27	/	27	0.33
12	C[C@H](CO)N1C[C@H](C)[C@H](CN(C)C(=O)Nc2ccccc2)Oc2c(NS(=O)(=O)c3ccc(F)cc3)cccc2C1=O	-2	/	-10	0.61
13	C[C@@H]1CN([C@H](C)CO)C(=O)Cc2cc(NC(=O)c3ccncc3)ccc2O[C@@H]1CN(C)S(=O)(=O)c1ccc(Cl)cc1	-2	0.1	8	-0.086
14	Cc1ccc(S(=O)(=O)Nc2cccc3c2O[C@H](CN(C)C(=O)Nc2ccccc2)[C@@H](C)CN([C@H](C)CO)C3=O)cc1	-3	0.3	-49	0.35
15	Cn1c(=O)c2c(ncn2CC(O)CNc2ccc(Br)cc2)n(C)c1=O (stereo unspecified)	4	1.4	/	/
16	C[C@@H]1CN([C@H](C)CO)C(=O)c2cccc(NS(=O)(=O)c3cccs3)c2O[C@@H]1CN(C)Cc1ccc(-c2ccccc2)cc1	-10	-0.9	-2	-0.052
17	C[C@H](CO)N1C[C@H](C)[C@H](CN(C)S(C)(=O)=O)Oc2c(NC(=O)c3cnccn3)cccc2C1=O	-10	0.7	-23	4.7*
18	C[C@H](CO)N1C[C@H](C)[C@@H](CN(C)C(=O)Nc2ccc3c(c2)OCO3)Oc2c(NC(=O)Nc3ccc(C(F)(F)F)cc3)cccc2C1=O	-19	-0.4	-34	0.17
19	COC(=O)c1ccccc1NC(=O)CSc1nc(-c2ccccc2)cc(=O)[nH]1	4	1.3	/	/
20	CCc1cccc(C)c1NC(=O)CNS(=O)(=O)c1ccc(Cl)cc1	-2	0.2	/	/
21	Cc1noc(C)c1S(=O)(=O)Nc1ccc2c(c1)CC(=O)N([C@H](C)CO)C[C@@H](C)[C@H](CN(C)Cc1ccc(Cl)c(Cl)c1)O2	-7	-1.9	15	-0.11
22	C[C@H]1CN([C@@H](C)CO)C(=O)c2cccc(NS(C)(=O)=O)c2O[C@@H]1CN(C)Cc1ccc(C(=O)O)cc1	-2	/	11	-0.74
23	Cc1ccc(C(=O)Nc2ccccc2C(=O)N2CCN(c3ccccc3)CC2)cc1S(=O)(=O)N1CCCCC1	-12	1.1	/	/
24	COc1ccc(NC(=O)N(C)C[C@H]2Oc3ccc(NS(=O)(=O)c4cn(C)cn4)cc3C(=O)N([C@H](C)CO)C[C@H]2C)cc1	3	/	-9	2
25	C[C@H](CO)N1C[C@H](C)[C@H](CN(C)CC2CC2)Oc2c(NC(=O)c3ccncc3)cccc2C1=O	-1	2.1	-5	0.2
26	Cc1ccc(S(=O)(=O)Nc2cccc3c2O[C@@H](CN(C)Cc2ccc(-c4ccccc4)cc2)[C@@H](C)CN([C@H](C)CO)C3=O)cc1	-7	-0.4	16	0.25
27	O=C(CCc1ccc(O)cc1)CC(O)CCc1ccc(O)c(O)c1 (stereo unspecified)	11	1.1	-6	-0.18
28	CC(=O)O[C@H]1CC[C@H](C)[C@@]2(C)[C@H](OC(C)=O)c3c(C)coc3C(=O)[C@H]12	-14	-2.6	2	0.74
29	C[C@@H]1CN([C@H](C)CO)C(=O)Cc2cc(NC(=O)CCN3CCOCC3)ccc2O[C@@H]1CN(C)C	-4	0.8	17	-0.21
30	NC(=O)CSc1nnc(Cc2ccccc2)n1-c1ccccc1	1	0.8	/	/

Next part; the last four above are carried over.
nr	Molecule	MITF inh	PD-1 reversal	Shh pathway inh	YB-1 expr inh
27	O=C(CCc1ccc(O)cc1)CC(O)CCc1ccc(O)c(O)c1 (stereo unspecified)	11	1.1	-6	-0.18
28	CC(=O)O[C@H]1CC[C@H](C)[C@@]2(C)[C@H](OC(C)=O)c3c(C)coc3C(=O)[C@H]12	-14	-2.6	2	0.74
29	C[C@@H]1CN([C@H](C)CO)C(=O)Cc2cc(NC(=O)CCN3CCOCC3)ccc2O[C@@H]1CN(C)C	-4	0.8	17	-0.21
30	NC(=O)CSc1nnc(Cc2ccccc2)n1-c1ccccc1	1	0.8	/	/
31	C[C@@H]1CN([C@H](C)CO)C(=O)c2cccc(NS(=O)(=O)c3cccs3)c2O[C@@H]1CN(C)CC1CCCCC1	-7	/	-18	-0.51
32	Cc1noc(C)c1NC(=O)Nc1cccc2c1O[C@H](CN(C)Cc1ccccc1)[C@@H](C)CN([C@H](C)CO)C2=O	6	-0.4	-22	0.1
33	COc1ccc(S(=O)(=O)N(C)C[C@H]2Oc3ccc(NC(=O)Nc4ccc(C(F)(F)F)cc4)cc3CC(=O)N([C@H](C)CO)C[C@H]2C)cc1	45	-3.0	41	-0.36
34	C[C@@H]1CN([C@H](C)CO)C(=O)c2cccc(NS(C)(=O)=O)c2O[C@@H]1CN(C)Cc1ccc(-c2ccccc2)cc1	-12	1.3	7	-0.42
35	Cc1noc(C)c1NC(=O)Nc1ccc2c(c1)CC(=O)N([C@H](C)CO)C[C@@H](C)[C@@H](CN(C)Cc1ccc(-c3ccccc3)cc1)O2	6	-2.7	9	0.059
36	Cc1cc(=O)[nH]c(SCCCOc2ccc3c(c2)CCC3)n1	8	-0.5	/	/
37	COC(=O)c1cc(OC)c(OC)cc1NC(=O)c1c(C)noc1C	-18	-0.2	/	/
38	C[C@@H]1CN([C@@H](C)CO)C(=O)c2cc(NC(=O)Nc3cccc4ccccc34)ccc2O[C@@H]1CN(C)Cc1ccc(Cl)c(Cl)c1	27	-3.6	/	0.19
39	COc1ccc(NC(=O)Nc2cccc3c2O[C@H](CN(C)Cc2ccc(-c4ccccc4)cc2)[C@@H](C)CN([C@H](C)CO)C3=O)cc1	-1	0.7	-21	0.21
40	CNC[C@@H]1Oc2ccc(NC(=O)CCCN(C)C)cc2C(=O)N([C@H](C)CO)C[C@@H]1C	-1	/	46	-0.16
41	COc1ccccc1NC(=O)c1c(NC(=O)c2cccnc2)sc2c1CCC(C)C2 (stereo unspecified)	-2	-1.6	/	/
42	C[C@@H]1CCCCO[C@@H](CN(C)S(=O)(=O)c2cn(C)cn2)[C@@H](C)CN([C@H](C)CO)C(=O)c2cc(NS(=O)(=O)c3ccc(F)cc3)ccc2O1	8	/	-3	-0.096
43	C[C@@H]1CN([C@@H](C)CO)C(=O)Cc2cc(NC(=O)CCN3CCOCC3)ccc2O[C@@H]1CN(C)Cc1ccc(C(=O)O)cc1	-1	-0.3	-76	0.25
44	C[C@H](CO)N1C[C@H](C)[C@H](CN(C)Cc2ccccc2)Oc2ccc(N(C)C)cc2C1=O	7	0.7	21	0.27
45	COc1ccc(-c2cn(S(=O)(=O)c3ccccc3OC)nc2N)cc1OC	16	-3.1	/	/
46	Cc1cc(N(CC(=O)Nc2ccccc2C(=O)N2CCCC2)S(C)(=O)=O)ccc1Br	-10	-0.9	/	/
47	C[C@H](CO)N1C[C@H](C)[C@@H](CN(C)CC2CC2)Oc2ccc(NS(=O)(=O)c3ccccc3)cc2C1=O	-4	0.8	-29	-0.13
48	N#C/C(=C\c1ccc(O)c(O)c1)C(=O)NCCCNC(=O)/C(C#N)=C/c1ccc(O)c(O)c1	-10	-1.8	-9	-0.18
49	Cc1noc(C)c1S(=O)(=O)N(C)C[C@@H]1Oc2ccc(NC(=O)NC(C)C)cc2CC(=O)N([C@H](C)CO)C[C@@H]1C	0	0.5	-34	0.22
50	C[C@@H]1CN([C@@H](C)CO)C(=O)c2cccc(NC(=O)C3CCCCC3)c2O[C@H]1CN(C)S(=O)(=O)c1ccc(F)cc1	2	1.5	-22	-0.022
51	Cc1cc(NC(=O)c2nn3c(C(F)(F)F)cc(-c4ccccc4)nc3c2Cl)n(-c2ccccc2)n1	6	-5.1	/	/
52	Cc1noc(C)c1NC(=O)N(C)C[C@H]1Oc2c(NC(=O)c3ccc(-c4nccs4)cc3)cccc2C(=O)N([C@H](C)CO)C[C@@H]1C	4	2.6	-27	-0.36
53	C[C@H](CO)N1C[C@H](C)[C@H](CN(C)C(=O)Nc2ccc3c(c2)OCO3)Oc2c(NS(C)(=O)=O)cccc2C1=O	-7	2.1	-47	0.33
54	O=C(CC(NC1CCCC1)C(=O)O)Nc1cccc(Cl)c1 (stereo unspecified)	-10	0.9	/	/
55	COC(=O)c1ccc(NC(=O)C(C)NS(=O)(=O)c2ccc(Cl)cc2)cc1 (stereo unspecified)	-14	1.0	/	/
56	C[C@H]1CN([C@@H](C)CO)C(=O)Cc2cc(NC(=O)Nc3ccc(F)cc3)ccc2O[C@@H]1CN(C)Cc1ccc(Cl)c(Cl)c1	31	-0.7	-14	-0.088
57	Cc1ccc(S(=O)(=O)N(C)C[C@@H]2Oc3ccc(NC(=O)CCCCCC(=O)Nc4ccccc4N)cc3CC(=O)N([C@H](C)CO)C[C@H]2C)cc1	-37	-0.4	/	-0.13
58	Cc1c(Cl)cccc1NC(=O)CNC(=O)c1ccc([N+](=O)[O-])cc1	-9	-6.2	/	/
59	COc1ccc(S(=O)(=O)Nc2ccc3c(c2)C(=O)N([C@H](C)CO)C[C@H](C)[C@H](CN(C)Cc2ccc(-c4ccccc4)cc2)O3)cc1	5	3.0	46	0.34
60	C[C@@H]1CN([C@H](C)CO)C(=O)Cc2cc(NC(=O)CCCCCC(=O)Nc3ccccc3N)ccc2O[C@H]1CN(C)Cc1ccncc1	-18	1.9	/	-0.08
61	Cn1c(=N)n(CCCOc2ccc(F)cc2)c2ccccc21	-15	-2.0	58	-0.12
62	COc1cc(NC(=O)Cn2nnc(-c3ccccc3Cl)n2)cc(OC)c1OC	-1	0.8	/	/
63	Cc1ccc(S(=O)(=O)N(C)C[C@@H]2OCCCC[C@@H](C)Oc3ccc(NS(=O)(=O)c4cn(C)cn4)cc3C(=O)N([C@H](C)CO)C[C@@H]2C)cc1	9	/	7	-0.064
64	CC1=CC(=O)CC2C1(C)CCC(C)C2(C)CC/C(C)=C\C(=O)O (stereo unspecified)	-7	1.8	-29	-0.16
65	C[C@@H]1CN([C@H](C)CO)C(=O)c2cc(NC(=O)Cc3cn(C)c4ccccc34)ccc2O[C@@H]1CN(C)C	12	0.5	/	-0.24
66	O=C(CN(CCO)C(=O)c1ccc(Cl)cc1)Nc1ccc(F)cc1	5	-0.3	51	-0.36
67	CC(Sc1nc(N)cc(N)n1)C(=O)Nc1cccc(Cl)c1 (stereo unspecified)	8	-0.9	/	/
68	Cc1ccc(S(=O)(=O)N(C)C[C@@H]2Oc3c(NS(=O)(=O)c4cccs4)cccc3C(=O)N([C@@H](C)CO)C[C@@H]2C)cc1	7	0.2	19	-0.24
69	C[C@H]1CN([C@@H](C)CO)C(=O)Cc2cc(NC(=O)CCC(F)(F)F)ccc2O[C@H]1CN(C)Cc1ccc(Cl)c(Cl)c1	2	/	-3	0.16
70	Cc1cc(C)cc(NC(=O)COc2ccc(N3CC(C(N)=O)CC3=O)cc2)c1 (stereo unspecified)	0	-3.6	/	/
71	COc1ccccc1CC(=O)Nc1ccc(S(=O)(=O)N2CCOCC2)cc1	-15	0.9	/	/
72	Cc1cc2c(cc1C)C(Nc1ccccc1)=NC(C)(C)C2	0	-2.3	/	-0.28

Some values from the results shown:
Under PD-1 reversal, cpd 72 is entered as -2.3
Under PD-1 reversal, cpd 71 is entered as 0.9
Under PD-1 reversal, cpd 62 is entered as 0.8
Under PD-1 reversal, cpd 67 is entered as -0.9
Under YB-1 expr inh, cpd 65 is entered as -0.24

Some of the compounds tested; rates above refer to the full screens.
